Screening results from PubChem.
GALR2 agonist: GALR2 (human) receptor agonism; O43603; GALR2-expressing cells, agonist activation read-out; activation, %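 (tested at 5 µM)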; 140,000 tested, 0.48% active;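 active means above mean plus 3 SD of all compounds, about 5% in these data, not always enough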;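 further: 0% = vehicle buffer wells and 100% = reference agonist at full effect; tested in CHO reporter cells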
PKD1 kinase inh: inhibitors of human PKD1 kinase; inhibition, %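 (about 10 µM by stock and volumes)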; PKD1 kinase fluorescence polarization assay; 200,000 tested, 0.056% active;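 active means inhibition of 50% or more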;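 further: controls were vehicle for no effect and a reference inhibitor for full effect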
Target sequence (Q15139 whole entry, looked up): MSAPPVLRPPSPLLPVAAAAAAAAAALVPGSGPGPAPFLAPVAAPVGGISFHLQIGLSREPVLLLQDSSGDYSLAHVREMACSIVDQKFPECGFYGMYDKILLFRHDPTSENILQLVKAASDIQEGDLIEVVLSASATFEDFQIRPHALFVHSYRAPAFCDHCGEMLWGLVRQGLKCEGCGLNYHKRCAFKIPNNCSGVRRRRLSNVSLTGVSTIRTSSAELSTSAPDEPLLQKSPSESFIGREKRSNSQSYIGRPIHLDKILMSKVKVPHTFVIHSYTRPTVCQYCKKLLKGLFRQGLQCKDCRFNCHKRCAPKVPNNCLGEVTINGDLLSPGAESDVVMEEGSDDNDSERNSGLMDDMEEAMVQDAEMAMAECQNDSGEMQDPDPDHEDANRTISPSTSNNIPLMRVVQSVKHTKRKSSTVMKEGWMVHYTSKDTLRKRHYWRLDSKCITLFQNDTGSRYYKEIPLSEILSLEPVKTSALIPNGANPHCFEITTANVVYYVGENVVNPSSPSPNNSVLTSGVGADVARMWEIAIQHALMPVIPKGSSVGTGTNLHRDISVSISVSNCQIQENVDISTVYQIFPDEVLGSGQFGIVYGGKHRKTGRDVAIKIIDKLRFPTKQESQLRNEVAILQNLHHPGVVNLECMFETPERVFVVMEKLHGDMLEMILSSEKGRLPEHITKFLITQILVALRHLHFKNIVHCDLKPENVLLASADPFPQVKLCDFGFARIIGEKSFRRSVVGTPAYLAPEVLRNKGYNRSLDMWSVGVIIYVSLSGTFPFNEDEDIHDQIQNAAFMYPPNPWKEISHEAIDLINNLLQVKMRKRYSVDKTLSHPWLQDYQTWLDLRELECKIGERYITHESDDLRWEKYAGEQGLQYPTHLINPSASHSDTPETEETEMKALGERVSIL
HSV augment: HSV replication enhancement. HSV replication augmentation in cells, fold increase. maximum fold increase. 220,000 tested, 0.005% active. AID 1956;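 active means peak rise of 1.5-fold or more in the series; inconclusive means self-fluorescent or not available for retest; tested in PC3 cells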;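 further: first round at 10 µM; read as green reporter fluorescence; hits show the peak of a series up to 25 µM; 1 = signal of infected wells without compound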
RGS16-Gao HTS: RGS16-Galphao interaction regulator (human) | O15492+P09471 | 220,000 tested, 0.38% active | bead-based flow cytometry RGS16-Galphao binding, fluorescence; actives lie on both sides | binding response (% of control), % at 10 µM;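 active means below 25% or above 175%, edge rows of some plates excepted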;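 further: Galphao activated by GDP with aluminum fluoride before binding; 100% = wells without compound and 0% = beads without RGS; some results beyond the cut were filed as inactive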
INS promoter inh: TRM-6 insulin promoter activity inhibition; 130,000 tested, 0.9% active; AID 1273; TRM-6 cells (human fetal islet line), insulin promoter-eGFP reporter, imaging; reporter expression induced with tamoxifen; inhibition, % at 2 µM;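 active means inhibition above the mean plus 3 SD, with well images judged a real hit on visual review, cut at about 60% in these data, passing the limit was not always enough; inconclusive means inhibition over the cutoff but images rejected on review; inactive means inhibition not above the cutoff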
INS promoter inh cell count: recorded beside INS promoter inh, whose call it bears; normalized cell count, %; measured here: cell count, toxicity; reference of the scale not given here;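 cells exposed to compound for 48 h; stained nuclei by imaging scaled within each plate; lower means fewer cells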
HSV augment primary fold: recorded beside HSV augment, whose call it bears; fold increase; compound at 10 µM; measured here: primary screen fold increase 10 uM; tested in PC3 cells;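 GFP signal in the first replicate; 1 = infected wells without compound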
* = called active by the depositor; i = inactive; ? = inconclusive; . = not tested or not shown. Random draw from the library. Share with any hit: about 1.3%.

mol	HSV augment primary fold	RGS16-Gao HTS	HSV augment	GALR2 agonist	INS promoter inh	INS promoter inh cell count	PKD1 kinase inh
N#Cc1nc(COc2ccccc2)oc1NCCCn1ccnc1	.	108	.	-2.0	-12	124	5
Cc1ccc(S(=O)(=O)N2CCCOC2CNC(=O)C(=O)NCc2cccs2)cc1 (centres undefined)	0.93	98	i	-1.1	-13	120	-10
O=C1c2cccnc2C(O)N1Cc1ccccc1 (centres undefined)	0.97	97	i	-3.7	.	.	8
COC(=O)C1=C(C)Nc2ncnn2C1c1ccc(C)o1 (centres undefined)	1.1	84	i	0.4	.	.	-14
Cc1cc(C(=O)Nc2cccc([N+](=O)[O-])c2)c(C)o1	1	117	i	1.4	-100	141	2
O=C(Nc1cccc(S(=O)(=O)N2CCOCC2)c1)c1ccc2ccccc2n1	0.69	95	i	.	.	.	.
Brc1ccc(-c2nn3c(-c4ccccn4)nnc3s2)o1	0.96	95	i	1.2	.	.	-4
CCCN1C(=O)c2cc(C(=O)NC3CCCC3)ccc2C1O (centres undefined)	1	100	i	-2.0	.	.	0
CC(C)C(=O)NC(=O)[C@@H]1CCCN1C(=O)/C=C/c1ccccc1	1.1	102	i	-1.9	52	96	-2
Cc1cc(=O)[nH]c(Nc2cccc(C(F)(F)F)c2)n1	0.82	105	i	-2.2	0	134	0
COc1ccc(N/N=C/c2c(C(=O)O)ccc3ccccc23)cc1	1.1	97	i	.	.	.	.
Cc1ccc(CN2CCN(Cc3cccn3-c3ccccn3)CC2CCO)o1 (centres undefined)	1.1	91	i	.	.	.	-2
COc1ccc(OC)c(C2CC(=O)N3CN(c4cccc(Cl)c4)CSC3=C2C#N)c1 (centres undefined)	0.8	106	i	-0.8	.	.	6
CNC(=O)CN(c1ccc2c(c1)OCCO2)S(C)(=O)=O	1.6	95	i	-0.1	-7	197	2
Cc1cccc(N2CCN(C(=O)c3ccncc3)CC2)c1C	0.74	118	i	0.3	-28	43	-3

Four compounds already listed, sorted by length of the SMILES, lowest first.
mol	HSV augment primary fold	RGS16-Gao HTS	HSV augment	GALR2 agonist	INS promoter inh	INS promoter inh cell count	PKD1 kinase inh
CCCN1C(=O)c2cc(C(=O)NC3CCCC3)ccc2C1O (centres undefined)	1	100	i	-2.0	.	.	0
CNC(=O)CN(c1ccc2c(c1)OCCO2)S(C)(=O)=O	1.6	95	i	-0.1	-7	197	2
Cc1cc(C(=O)Nc2cccc([N+](=O)[O-])c2)c(C)o1	1	117	i	1.4	-100	141	2
COc1ccc(OC)c(C2CC(=O)N3CN(c4cccc(Cl)c4)CSC3=C2C#N)c1 (centres undefined)	0.8	106	i	-0.8	.	.	6

Going on with the list.
mol	HSV augment primary fold	RGS16-Gao HTS	HSV augment	GALR2 agonist	INS promoter inh	INS promoter inh cell count	PKD1 kinase inh
O=C(NCc1ccco1)C1CCCN(S(=O)(=O)c2ccc(-n3cnnn3)cc2)C1 (centres undefined)	0.88	102	i	-1.8	-31	113	-2
COC(=O)C1=C(C)N=c2s/c(=C/c3cccs3)c(=O)n2C1c1ccc(F)cc1 (centres undefined)	0.78	100	i	-0.4	-57	91	2
C/C(=N\Nc1nc2ccccc2[nH]1)c1ccc(C)o1	1	159	i	-0.5	.	.	0
COc1ccc(OC)c(S(=O)(=O)n2nc(C)cc2C)c1	1.1	99	i	-1.7	19	80	2
CNS(=O)(=O)c1ccc(NCC2COc3ccccc3O2)c([N+](=O)[O-])c1 (centres undefined)	0.88	80	i	-0.3	-17	101	-3
CC(C)Cc1nnc(NC(=O)c2cc(-c3ccncc3)nc3ccccc23)s1	0.89	98	i	.	.	.	.
Cc1ccc(CC(=O)Nc2nncs2)cc1	1.1	99	i	0.4	47	57	-10
O=C(CSCc1cnn(-c2ccccc2)c1-n1cccc1)NCC1CCCO1 (centres undefined)	0.98	102	i	-0.2	-29	133	-3
O=C(CSc1nnc(CNC(=O)c2c(F)cccc2Cl)o1)NCc1ccc2c(c1)OCO2	0.7	101	i	-1.5	21	124	-2
Cc1ccc(Nc2nc3c(c(=O)[nH]c(=O)n3C)n2Cc2ccc(F)cc2)cc1	0.93	114	i	-0.6	-38	143	1
COc1ccc(C(=O)Nc2ccc(N3CCOCC3)cc2)cc1S(=O)(=O)NC1CCCC1	0.91	108	i	.	7	73	1
C=CCN1C(=O)/C(=C2/C(=O)N(CC(=O)O)c3ccccc32)S/C1=N/c1nccs1	.	92	.	-2.3	38	112	-5
Cn1c(SCC(=O)c2c(N)n(C)c(=O)n(C)c2=O)nnc1-c1ccc(F)cc1	1	108	i	0.0	16	160	-5
Cc1nc2[nH]c(=O)c3c(n2n1)NC1=C(C(=O)CC(C)(C)C1)C3c1ccccc1 (centres undefined)	1	88	i	-0.5	.	.	6
Cc1nc(CNS(=O)(=O)c2cc(F)ccc2F)cs1	1.1	.	i	-1.5	47	75	-16
CCOC(=O)CC(=O)CSc1nnc2c(n1)[nH]c1ccccc12	1	101	i	-1.2	-36	54	2
COc1cc(OC)cc(C(=O)NNc2nc3cc4c(cc3s2)OCO4)c1	0.96	110	i	-1.1	12	136	-6
O=C(NN=C1CCCC1)c1ccn[nH]1	0.94	100	i	-1.6	26	119	-5
COC(=O)NCC(c1cccnc1)N1CCN(c2ccccc2F)CC1 (centres undefined)	0.96	90	i	-0.2	29	77	-2
CC(=O)NS(=O)(=O)c1ccc(NC(=O)C2c3ccccc3Oc3ccccc32)cc1	0.93	100	i	-0.8	15	120	-9
C=CCNC(=O)C(C(=O)OCC)C1CCCCC1 (centres undefined)	0.93	106	i	-2.6	27	164	-13
CC1(C)CCc2cc(-c3ccnc(=S)[nH]3)ccc2O1	1.1	103	i	.	.	.	.
O=C(N/N=C/c1c(Cl)cccc1Cl)c1ccc(F)cc1	0.95	104	i	-3.0	.	.	1
COc1cccc(NC(=O)CSc2ccccn2)c1	0.94	104	i	0.7	9	100	8
CCn1c(NC(=O)c2ccccc2)nc2ccccc21	0.82	95	i	.	.	.	.
O=C(NN1C(=O)c2ccccc2NC1c1cccnc1)c1ccccc1 (centres undefined)	0.87	106	i	.	-93	133	-9
CCOC(=O)C1=C(C)NC(SC(C)=O)=NC1c1ccc(OC(C)=O)c(OC)c1 (centres undefined)	0.99	103	i	-1.9	18	95	-2
CN(C)C(=O)Cn1c(SCC(=O)NC2CCCCC2)nc2ccccc21	0.91	105	i	-0.9	5	40	-8
O=C(O)CC(SCc1ccc(C(=O)O)o1)C(=O)O (centres undefined)	0.93	101	i	-1.1	-76	86	-1
COc1ccc(C(=O)n2c(-c3ccco3)nc3ccccc32)cc1	0.99	100	i	0.1	41	25	-6
O=C1c2[nH]nc(-c3ccccc3O)c2C(c2cccc(Cl)c2)N1CC1CCCO1 (centres undefined)	.	108	.	-0.3	.	.	-6
COc1ccccc1N1CCN(Cc2cc(Br)c(O)c3ncccc23)CC1	0.4	97	i	-2.1	.	.	0
CCc1nnc(NC(=O)CCC(=O)NCC2CCCO2)s1 (centres undefined)	0.99	64	i	-1.8	.	.	0
O=C(NCc1ccccc1F)c1cccs1	1.1	104	i	-2.0	-394	67	-4
O=C(O)c1cn(Cc2ccccc2)c2ccccc2c1=O	1	103	i	-1.1	-383	66	-3
Cc1c(Cl)cccc1N=C(N)N=C(N)N	0.97	108	i	.	10	108	2
N#Cc1ccc(C(=O)NCC(c2ccco2)N2CCCCC2)cc1 (centres undefined)	1	142	i	1.5	46	101	1
C/C(O)=C(/C=Nc1ccccc1)C(=O)Nc1ccccc1	0.86	67	i	.	-28	56	1
C=CCc1cc(Cl)ccc1OC(=O)Nc1cccc(Cl)c1	1.2	102	i	.	.	.	.
Cc1cc(C)c2nc3s/c(=C/c4ccccc4)c(=O)n3c2c1	0.97	56	i	-1.4	-44	36	-3
O=c1[nH]cnc2c1C1(CCCC1)Cc1ccccc1-2	0.96	102	i	-2.7	25	117	-1
CCOc1ccccc1N1CCN(CC(=O)NC(=O)NCc2ccco2)CC1	0.93	98	i	.	-108	109	0
COC1(OC)N=C(N)C2(C#N)C(c3ccc(C)cc3)C12C#N (centres undefined)	0.96	100	i	-2.0	.	.	3
CCN1CCN(C(c2cc(OC)c(OC)c(OC)c2)c2nnnn2C(C)C)CC1 (centres undefined)	0.96	106	i	-2.2	.	.	-5
CCc1ccc(NC(=O)CSc2nc3cc(C(=O)OC)ccc3c(=O)n2Cc2ccco2)cc1	0.96	108	i	-0.8	.	.	-13

Results in PKD1 kinase inh, for some of the entries so far:
Molecule	PKD1 kinase inh
O=C(NCc1ccccc1F)c1cccs1	-4
O=C(O)c1cn(Cc2ccccc2)c2ccccc2c1=O	-3
Cc1c(Cl)cccc1N=C(N)N=C(N)N	2
N#Cc1ccc(C(=O)NCC(c2ccco2)N2CCCCC2)cc1 (centres undefined)	1
C/C(O)=C(/C=Nc1ccccc1)C(=O)Nc1ccccc1	1

(further entries)
mol	HSV augment primary fold	RGS16-Gao HTS	HSV augment	GALR2 agonist	INS promoter inh	INS promoter inh cell count	PKD1 kinase inh
CCn1c(SCC(=O)NCc2ccco2)nnc1-c1ccc(N)cc1	.	104	.	0.8	-29	80	-3
O=C(O)COn1c(-c2ccccc2)nc2ccc([N+](=O)[O-])cc21	1	102	i	.	-12	92	1
COc1ccc2[nH]cc(C(=O)CN3CCN(C/C=C/c4ccccc4)CC3)c2c1	0.87	103	i	-1.0	.	.	-1
CCN1C(=O)/C(=C/C=C2/Sc3ccccc3N2CCO)SC1=S	.	102	?	.	.	.	-3
COc1nc(OC)nc(N2CCC(C(=O)NCc3ccc(F)cc3)CC2)n1	0.93	155	i	-1.5	-100	81	8
CC(=O)Nc1ccc(NC(=O)/C=C/c2cccc(C(F)(F)F)c2)cc1	0.95	91	i	-1.7	-7	131	-7
O=S(=O)(NC1=NCCC1)c1cccc(NC(=S)NCCc2ccccc2)c1	1	101	i	0.1	7	186	-8
COc1ccc(Sc2nnc(Cc3ccccc3)c3ccccc23)cc1	0.9	101	i	-2.7	-17	99	1
COCCn1c(C)cc(C(=O)CSc2nnc(C)s2)c1C	.	83	.	-1.6	-16	61	-3
Cc1cc(C=O)c(C)n1-c1cc(C(=O)O)cc(C(=O)O)c1	0.91	108	i	.	15	180	2
O=C(COC(=O)Cc1ccc(Cl)cc1)Nc1c(F)cccc1F	0.99	102	i	.	-36	61	-1
O=C(NCCCN1CCCCC1)c1ccc2c(c1)NC(=O)C(N1CCCCC1)S2 (centres undefined)	0.97	106	i	0.0	0	78	-10
O=C(NCc1nnc(SCC(=O)N2CCOCC2)o1)c1cccs1	0.86	101	i	.	20	100	-1
CCCCC(=O)Nc1ccc(NC(=S)NC(=O)c2ccco2)cc1OC	0.94	101	i	.	.	.	.
CCOC(=O)c1ccc(N=Nc2c(C)c(C#N)c(O)[nH]c2=O)cc1	0.91	109	i	.	0	148	0
CCCOc1ccc(OCCN2CCCC(C)C2)cc1 (centres undefined)	0.92	104	i	-0.6	-43	150	1
CCCc1ccc(Oc2c(-c3ccc(O)c(C)c3O)n[nH]c2C)cc1	0.81	101	i	1.1	.	.	-3
